D2 agonist – Beta-Arrestin HTS for Positive Allosteric Modulators of the Human D2 Dopamine Receptor: Agonists | 360,000 tested, 0.084% active | D(2) dopamine receptor (Homo sapiens), P14416 | activation, % (concentration not given with the values) | DiscoveRx PathHunter D2 beta-arrestin, luminescence, 90 min; 100% = 57 uM dopamine signal; in the data active = activation above about 40%; inconclusive = about 15% to 40%; inactive = below about 15%; further: compound concentration not given in the record; the text of the record calls up to 30% inactive
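Agonist mode: compounds alone added to overnight-plated D2 PathHunter cells for 90 min at 37 C, with 57 uM final dopamine (EC100) defining full response. Beta-arrestin recruitment detected by chemiluminescent reagent, read after 1 h at ambient temperature.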
gsp ag – qHTS for Agonist of gsp, the Etiologic Mutation Responsible for Fibrous Dysplasia/McCune-Albright Syndrome: qHTS | Potency, µM (titrated, usually from 76.9 µM), for inactives: top-dose activation (cAMP increase), hits mostly activators | AID 624287, 2012 | gsp mutant cells, cAMP HTRF, 30 min; control for the full effect not named in the record | 340,000 tested, 0.13% active; active = well fitted activation curve with a large enough effect; inconclusive = small, poorly fitted or top-dose-only effect, or another doubt; inactive = no such curve, though single readings can be large or run the other way; cell line not stated here;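 further: phosphodiesterase inhibitor Ro 20-1724 added with compounds to block cAMP breakdown; potency means the concentration at half of the fitted maximal effect; nearly all actives have a fitted effect of over 60% in size; about a fifth of the inactives were tested at one dose only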
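Cells stably selected in G418 were plated at 2000/well, grown 16-24 hr, then given compounds in DMSO with the PDE inhibitor […] (300 uM solution added) for 30 min at 37C; cAMP was read by HTRF.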
Six1-Eya2 inh – qHTS Assay for Inhibitors of the Six1/Eya2 Interaction; Homeobox protein SIX1 (Homo sapiens) + Protein phosphatase EYA2 (Homo sapiens), …; AlphaScreen GST-Six1/His-Eya2 binding, biochemical; active compounds read low; control for the full effect not named in the record; activity change, % (test concentration not listed); 360,000 tested, 0.56% active; AID 651725, 2012; in the data active = activity change below about -65%; inconclusive = about -30% to -65%; inactive = above about -30%; further: on the % scale 0 is the no-effect control and ±100 the full control effect
Target sequence (O00167 whole entry, looked up): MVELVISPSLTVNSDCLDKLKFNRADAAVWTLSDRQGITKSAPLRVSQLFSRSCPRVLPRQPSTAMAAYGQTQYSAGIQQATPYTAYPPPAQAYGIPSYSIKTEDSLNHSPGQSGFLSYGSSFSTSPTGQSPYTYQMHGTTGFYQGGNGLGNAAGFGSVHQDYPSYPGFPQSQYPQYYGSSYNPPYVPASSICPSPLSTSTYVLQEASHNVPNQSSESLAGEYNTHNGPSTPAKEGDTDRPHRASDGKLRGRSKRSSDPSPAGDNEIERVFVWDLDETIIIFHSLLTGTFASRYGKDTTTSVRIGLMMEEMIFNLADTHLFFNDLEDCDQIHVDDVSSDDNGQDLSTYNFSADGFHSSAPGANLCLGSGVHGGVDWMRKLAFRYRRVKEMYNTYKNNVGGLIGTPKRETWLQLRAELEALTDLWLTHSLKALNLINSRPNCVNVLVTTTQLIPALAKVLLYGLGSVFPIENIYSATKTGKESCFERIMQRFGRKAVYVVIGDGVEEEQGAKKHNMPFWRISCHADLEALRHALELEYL
Target sequence (Q15475 whole entry, looked up): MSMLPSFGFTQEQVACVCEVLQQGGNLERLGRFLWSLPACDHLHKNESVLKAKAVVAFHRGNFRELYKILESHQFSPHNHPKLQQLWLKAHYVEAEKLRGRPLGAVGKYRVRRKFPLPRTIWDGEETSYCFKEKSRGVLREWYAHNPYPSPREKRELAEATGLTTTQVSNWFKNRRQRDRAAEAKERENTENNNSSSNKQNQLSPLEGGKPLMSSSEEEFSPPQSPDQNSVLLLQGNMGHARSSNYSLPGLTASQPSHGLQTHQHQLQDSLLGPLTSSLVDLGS
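Homogeneous AlphaScreen proximity assay pairing GST-Six1 with His-tagged Eya2 (added as 5X mix: 250 nM and 500 nM) in 50 mM Tris pH 8.0, 300 mM NaCl, 1 mM TCEP. Glutathione donor and nickel acceptor beads; 1 h, 37 °C, dark.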
gsp antag – qHTS for Antagonists of gsp, the Etiologic Mutation Responsible for Fibrous Dysplasia/McCune-Albright Syndrome: qHTS. gsp-mutant cells, cAMP HTRF, 30 min; control for the full effect not named in the record. Potency, µM (titrated, usually from 76.9 µM), for the others: top-dose activity change, negative = inhibition, most hits filed as inhibitors. 340,000 tested, 0.4% active; active = falling curve of any shape with a large fitted effect; inconclusive = falling curve, mostly with a smaller effect; inactive = flat or rising curve; cell line not stated here;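 further: intracellular cAMP measured with PDE inhibitor Ro 20-1724 present during compound exposure; potency means the concentration at half of the fitted maximal effect; on the % scale 0 is the no-effect control and ±100 the full control effect; nearly all actives have a fitted effect of over 65% in size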
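G418-selected cells were plated in DMEM/10% FBS for 16-24 h at 37C, then treated with compounds plus the PDE inhibitor […] (300 uM solution added) for 30 min at 37C. Intracellular cAMP was measured by HTRF after 30 min lysis at room temperature.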
CtBP-E1A blk – qHTS Assay for Inhibitors of the CtBP/E1A Interaction | activity change, % (no concentration beside the values) | AlphaScreen GST-E1A/His-CtBP binding, 1536-well; active compounds read low; control for the full effect not named in the record | 340,000 tested, 0.49% active | CtBP / adenovirus E1A interaction (AlphaScreen) | AID 651724, 2012; in the data active means activity change below about -65%; inconclusive means about -30% to -65%; inactive means above about -30%; further: on the % scale 0 is the no-effect control and ±100 the full control effect
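Homogeneous bead-based format: GST-tagged E1A captured on glutathione donor beads, His-tagged CtBP on nickel acceptor beads; compounds precede bead addition by 2 h at 37 °C.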
D2 potentiator – Beta-Arrestin HTS for Positive Allosteric Modulators of the Human D2 Dopamine Receptor: Potentiators; D(2) dopamine receptor (Homo sapiens), P14416; DiscoveRx D2 beta-arrestin cells, luminescence, 90 min; 100% = 57 uM dopamine signal; potentiation, % (no concentration beside the values); 360,000 tested, 0.23% active; AID 624464, 2012; active = potentiation of 50% or more; inconclusive = 30% to 50%; inactive = 30% or less;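 further: compound concentration not given in the record; tested on top of an EC20 dose of dopamine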
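D2 cells co-treated with compound plus 50 nM dopamine (EC20) for 90 min at 37 deg C to detect potentiation. Beta-arrestin recruitment was read as enzyme-fragment luminescence after 1 h at ambient temperature. Full response was set by 57 uM dopamine.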
Starred values were filed as active, the others as inactive; ? = inconclusive; . = no result given; [ ] = remark or other dose.

SMILES	D2 agonist	gsp ag	Six1-Eya2 inh	gsp antag	CtBP-E1A blk	D2 potentiator
N#C/C(=C/c1ccc(Sc2nc3ccccc3[nH]2)o1)c1cccc(Br)c1	-1.7	20%	-3	-20%	3	-3
Cc1cc(C(=O)COC(=O)Cc2n[nH]c(=O)c3ccccc23)c(C)n1CC(F)(F)F	-3.7	4%[15.4 µM]	-2	4%	-3	-3
CC1(C(=O)NS(=O)(=O)c2ccc(C#N)cc2)CCN1C(=O)c1ccc(C2CCCCC2)cc1 (stereo not given)	-5.0	.	8	.	-3	-4
CC(C)CC(=O)NS(=O)(=O)c1ccc(NS(C)(=O)=O)cc1	-5.2	2%	5	-6%	.	-11
COCCNC(=O)C1CC2Cn3c(nc4cc(C)c(C)cc43)C2N1C (stereo not given)	-6.3	.	7	-2%	-21	-5
CCN(CC)C(=S)SCC(=O)NC12CC3CC(CC(C3)C1)C2	-0.6	-54%[inhibitor]	-3	-13%	0	-14
CCc1nc(N[C@H](C(=O)O)C(C)CC)c2oc3ccccc3c2n1 (stereo not given in full)	-2.3	-11%	11	-11%	1	-18
CC(C)N1CC(C(=O)Nc2ccc(Br)c(Cl)c2)CC1=O (stereo not given)	-1.3	20%	-1	-4%	-2	-11
O=C(N/N=C/c1ccccc1OC(F)F)C1=COCCO1	1.1	-16%[15.4 µM]	0	.	-14	1
Cc1cc(C)n2nc(CNS(=O)(=O)c3ccc(C)c(C)c3)nc2n1	-2.9	?	11	6%	3	0
COc1ccc(CNC(=O)C(Cc2ccccc2)n2cccc2)cc1 (stereo not given)	-0.8	-1%[15.4 µM]	-14	0%	-3	-9
Cc1cccc(C(=O)C2CCOC(C)(C)C2)c1 (stereo not given)	-1.3	-18%	2	10%	.	5
CCCn1c(SCC(=O)c2cc(C)n(-c3ccc4c(c3)OCO4)c2C)n[nH]c1=O	-1.4	?	-10	?	25	-11
CCN(CC)CCOc1ccc2nc(N(C)C)sc2c1	-1.4	0%	1	-3%	-1	7
CCCCN(C1CCS(=O)(=O)C1)S(=O)(=O)c1cccs1 (stereo not given)	2.1	21%[15.4 µM]	3	7%	5	-3
O=C(O)COc1ccc(-c2nc(-c3ccccc3)c(-c3ccccc3)[nH]2)cc1	-2.9	-7%[15.4 µM]	-24	13%	-16	-7
O=C(NCC(c1cccnc1)N1CCN(c2ccc(F)cc2)CC1)c1ccco1 (stereo not given)	-4.8	-5%	-2	9%	-11	-9
CCN(Cc1ccccc1)C(=O)c1cccc(S(=O)(=O)N2CCN(c3ccccc3)CC2)c1	-3.2	4%	-13	-2%	-6	-18
COc1ccc(S(=O)(=O)N2CCN(C(=O)c3cccs3)CC2)cc1	1.1	?	8	6%	6	-5
O=C(Cn1cnc2ccccc2c1=O)NC1CCCc2ccccc21 (stereo not given)	-10	?	1	-13%	9	22
Cc1cc(NC(=O)CCC(=O)N(c2ccccc2)C(C(=O)NC2CCCCC2)c2cccs2)no1 (stereo not given)	-4.5	-11%	2	-11%	2	4
O=C1CCCc2c1oc1c2CCCC1	1.5	12%	-9	6%	-10	-2
NC(=O)c1ccc(NC(=O)c2cccc3c2OCCCO3)cc1	0.3	-3%[15.4 µM]	-6	-6%	0	-12
CC(C)(C)NC(=S)NNC(=O)c1cccc(Br)c1	-8.1	9%	5	-1%	.	-17
C/C(=N/NC(=O)c1ccccn1)c1ccco1	0.3	-21%	-27	11%	?	-9
Cc1ccccc1NC(=O)COC(=O)[C@@H]1CCCN1C(=O)c1cccs1	1.5	-13%	8	-1%	1	-4
COc1ccc(-c2cc(NC=O)c3ncc(-c4cccc(C(=O)NCCN(C)C)c4)n3c2)c(OC)c1	5.3	.	-8	.	-15	-3
COCCNC(=O)C1(C)CCCN(Cc2csc3ccccc23)C1 (stereo not given)	-3.5	.	-2	.	1	-8
CCCNS(=O)(=O)c1ccc(OCC(=O)N2CCc3ccccc3C2)c(C)c1	?	-34%[inhibitor]	-1	-8%	2	4
NC(=O)C1CCN(C(=O)COc2ccc(S(=O)(=O)NCc3ccccc3)cc2Cl)CC1	-7.2	-6%	3	-14%	2	9
O=c1sc2ccccc2n1CCCOc1ccccc1	-5.4	-3%	25	-7%	25	-25
O=C(CSc1ccc(F)cc1)NNC(=O)c1ccccc1Br	-5.1	-3%[15.4 µM]	0	8%	0	-1
O=C(Cc1ccc(Cl)cc1)Nc1ccc(C(=O)N2CCOCC2)cc1	-5.2	-3%	3	0%	-14	-5
CCOC(=O)c1c(C)n(-c2ccccc2)c2ccc(OCCN(C)C)cc12	-2.1	?	-14	14%	-17	-28
CCCC1c2ccsc2CCN1C(=S)NC (stereo not given)	0.3	-15%	25	-8%	0	-2
CC(C)(C)c1ccc(C(=O)N2CCC(C(=O)NC3CCCCCC3)CC2)cc1	-0.9	-1%	-7	-14%	-1	-5
COc1ccc2cc(/C=N/NC(=O)c3ccc(CN(c4cccc(Cl)c4Cl)S(C)(=O)=O)cc3)c(Cl)nc2c1	3.0	-8%	-6	3%	-18	14
Fc1cccc(CSc2ccc(-c3ccc4c(c3)OCO4)nn2)c1	1.2	-49%[inhibitor]	12	4%	-12	11
COc1ccc(C(=O)Nc2cc(C(F)(F)F)ccc2-n2cncn2)cc1	-4.5	0%[15.4 µM]	15	3%	-6	-27
CCC(CC)C1C(C#N)=C(N)Oc2n[nH]c(C)c21 (stereo not given)	-2.9	?	-1	4%	-2	-18
COCCN(C(=O)CNC(=O)c1ccco1)C(C(=O)NC1CCCCC1)c1cccnc1 (stereo not given)	-3.8	8%[15.4 µM]	2	10%	3	-9
C=CCN1C(=O)/C(=c2\sc3nc(=O)c(Cc4ccccc4Cl)nn3c2=O)c2ccccc21	-4.0	-12%[15.4 µM]	0	?	4	-8
CCc1cccc(NC(=O)CCCCCC2NC(=O)NC2C)c1 (stereo not given)	-5.7	-3%[15.4 µM]	3	13%	2	-7
CC1CCc2c(sc(NC(=O)CSc3ncn[nH]3)c2C#N)C1 (stereo not given)	3.7	-44%[inhibitor]	-2	-18%	1	-12
CSCC[C@H](NC(=O)[C@H](Cc1ccccc1)n1c(=O)[nH]c2ccccc2c1=O)C(=O)N[C@@H](Cc1ccccc1)C(=O)O	1.1	.	0	0%	1	-4

A draw from above in order of molar mass, ascending:
SMILES	D2 agonist	gsp ag	Six1-Eya2 inh	gsp antag	CtBP-E1A blk	D2 potentiator
CCC(CC)C1C(C#N)=C(N)Oc2n[nH]c(C)c21 (stereo not given)	-2.9	?	-1	4%	-2	-18
O=c1sc2ccccc2n1CCCOc1ccccc1	-5.4	-3%	25	-7%	25	-25
COc1ccc(C(=O)Nc2cc(C(F)(F)F)ccc2-n2cncn2)cc1	-4.5	0%[15.4 µM]	15	3%	-6	-27
CCOC(=O)c1c(C)n(-c2ccccc2)c2ccc(OCCN(C)C)cc12	-2.1	?	-14	14%	-17	-28
COCCN(C(=O)CNC(=O)c1ccco1)C(C(=O)NC1CCCCC1)c1cccnc1 (stereo not given)	-3.8	8%[15.4 µM]	2	10%	3	-9
C=CCN1C(=O)/C(=c2\sc3nc(=O)c(Cc4ccccc4Cl)nn3c2=O)c2ccccc21	-4.0	-12%[15.4 µM]	0	?	4	-8

(next part)
SMILES	D2 agonist	gsp ag	Six1-Eya2 inh	gsp antag	CtBP-E1A blk	D2 potentiator
Clc1ccc(-c2nnc3n2CCCS3)cc1	-0.5	-18%	4	7%	5	-1
Cc1cc(OCC(=O)OCC(=O)N(C)c2c(N)n(Cc3ccccc3)c(=O)[nH]c2=O)ccc1Cl	3.2	-14%	0	11%	3	26
CC1CCCN(c2nc(N(C)c3ccccc3)nc(N)c2[N+](=O)[O-])C1 (stereo not given)	4.6	23%[15.4 µM]	-15	-2%	8	-11
COc1cc2[nH]c(=O)c(C(=O)NCCCN3CCCCC3)c(O)c2cc1OC	-2.4	7%	0	20%	-2	-32
CCNC(=S)N(CCCO)Cc1cc2cc3c(cc2[nH]c1=O)OCCO3	3.6	-41%[inhibitor]	2	-18%	0	2
CCCCn1c(SCc2ncc(-c3ccccc3)o2)nc2cc(S(N)(=O)=O)ccc21	0.3	26%	-26	?	-29	13
Cn1c(/C(C#N)=C(\O)c2cccc(F)c2)nc2ccccc21	9.8	-8%[15.4 µM]	11	3%	-18	-2
O=C(COC(=O)Cc1c[nH]c2ccccc12)Nc1cccc2ccccc12	0.6	6%	-4	2%	-9	2
CC1(C(=O)NS(=O)(=O)c2ccc(Cl)cc2)CCN1C(=O)Cc1ccsc1 (stereo not given)	2.4	.	0	.	-2	-1
COc1ccc(CN2CC(C(=O)NCCN3CCN(c4ccccc4F)CC3)CC2=O)cc1 (stereo not given)	4.2	0%	5	-3%	16	-20
Cc1nn(Cc2ccc(Cl)cc2)c2sc(C(=O)O)cc12	-5.0	18%[15.4 µM]	3	-35%	0	-7
Cc1cnc(CNC(=O)c2ccc3sc([C@@H]4O[C@H](CO)[C@H](O)[C@H](O)[C@H]4O)nc3c2)cn1	-8.1	.	1	.	0	-10
O=C(NO)c1ccccc1C(F)(F)F	0.7	20%	4	6%	5	-4
O=C(Nc1ccccc1C(=O)O)c1ccccc1	-3.1	-25%	-1	-23%	3	-4
COc1ccc2[nH]cc(CCNC(=O)c3ccc4ccccc4n3)c2c1	-1.9	1%[15.4 µM]	-8	-14%	-13	-2
Cc1[nH]n(-c2ccccc2)c(=O)c1N=Nc1cccc([N+](=O)[O-])c1	1.8	?	-6	1%	0	-3
CCCCCN1C(=O)/C(=C/c2c(N3CCc4ccccc4C3)nc3ccccn3c2=O)SC1=S	-3.7	19%[15.4 µM]	9	2%	-1	-8
Oc1ccc(-c2nc3ncccn3c2Nc2ccc3c(c2)OCO3)cc1	0.5	-28%	-12	-19%	-10	14
CCOC(=O)C1=C(COC(=O)COc2ccc(Br)cc2)NC(=O)NC1C (stereo not given)	5.8	-5%	5	3%	-20	15
O=C(Nc1ccccc1N1CCCCC1)c1ccc(F)c(S(=O)(=O)N2CCOCC2)c1	-3.0	10%[15.4 µM]	0	-11%	10	-13
Cc1ccc(S(=O)(=O)Nc2ccc(S(=O)(=O)Nc3nccs3)cc2)c([N+](=O)[O-])c1	2.3	-44%[inhibitor]	-1	-24%	7	11
COc1ccc(C(CNC(=O)c2cccc(S(=O)(=O)N3CCCC3)c2)N2CCCC2)cc1 (stereo not given)	-3.6	-2%	-3	1%	.	-17

Screening data: PubChem, National Center for Advancing Translational Sciences (NCATS)
